Mtb hypoxia rep: PubChem AID 1159583. fluorescence inhibition, % (concentration not given with the values). hit rate 0.1% among 300,000. M. tuberculosis hypoxia-regulated fluorescent reporter, fluorescence;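 active means 35 to 45% if threefold the growth effect, above 45% if 1.5-fold the growth effect; inactive means the rest, general growth blockers included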;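 further: wells of about 50 µL received 100 nL stock; 0% = vehicle wells and 100% = reference inhibitor wells; whole bacteria with a GFP reporter of the hypoxia response; strong numbers were not always called active; many hits fall short of the cut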
PrP 5UTR inh: inhibition of PrP 5' UTR reporter expression. cell-based PrP 5' UTR mRNA reporter, plate reader. inhibition, % (concentration not given with the values). hit rate 0.35% among 340,000. AID 488862, 2010;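 active means every replicate at 50% or more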;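 further: 0 = median of the neutral control wells; tested in H4 reporter cells; numbers are from one replicate; inactives centre near -14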
Sa RN4220 lethal: growth inhibition of S. aureus RN4220, primary screen, OD600; 16 h; inhibition, % (test concentration not listed); hit rate 0.33% among 330,000;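 active means z-score of -3 or lower and OD600 up to 0.18 on both plates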;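 further: plate controls were untreated cells for no effect and reference antibiotic for full effect; stock transfer was 100 nL into about 80 µL; one replicate is shown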
ugtP null kill: growth inhibition of ugtP-null S. aureus, primary screen, RN4220 ugtP deletion, OD600; 16 h; some inactives read as strong as hits; growth inhibition, % (concentration not given with the values); hit rate 0.54% among 330,000; AID 1259309, 2017;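 active means z-score under -3 and OD600 up to 0.15 on both plates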;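 further: plate controls were untreated wells for no effect and antibiotic for full effect; wells of about 80 µL received 100 nL stock; the first replicate is given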
Bead autofluor: flagged as autofluorescent in microsphere protease counterscreen. compound autofluorescence counterscreen, microsphere flow cytometry; active compounds read high. fluorescence intensity (test concentration not listed). hit rate 3.1% among 360,000. AID 624483;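 active means at least 3 SD above the mean of all compounds, about 16000 in these data; inconclusive means too few beads counted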;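 further: 100 nL of 1 mM stock went into each well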
BJeLR viability: MLPCN primary cell-based screen for lethality selective to Ras in HRASV12 cells | BJeLR (HRASV12) viability, CellTiter-Glo ATP luminescence, 48 h; reference of the scale not given here | inhibition, % (concentration not given with the values) | hit rate 0.17% among 300,000 | AID 1554, 2009;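 active means replicate mean above 50%; inconclusive means above 50% but judged a plate artefact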;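 further: 50 nL library stock added to about 25 µL; numbers are from one replicate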
Mtb hypoxia rep growth: recorded beside Mtb hypoxia rep, whose call it bears; growth inhibition, %; measured here: M. tuberculosis growth (absorbance);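 0% = vehicle and 100% = reference antibiotic; read after six days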
The depositor's hits bear a star; ? = inconclusive; / = no result given.

SMILES	Mtb hypoxia rep	Mtb hypoxia rep growth	PrP 5UTR inh	Sa RN4220 lethal	ugtP null kill	Bead autofluor	BJeLR viability
Cc1ccc(NC(=S)N2CCN(Cc3ccc4c(c3)OCO4)CC2)c(C)c1	/	/	-11	/	/	4098	4
O=C(CCCNC(=O)c1ccc(Cl)cc1)Nc1nccs1	9	7	-13	-0.7	-1	4014	/
Cn1c(CNC(=O)c2ccc3c(c2)OCO3)nnc1SCC(=O)Nc1ccc(F)cc1F	4	13	-15	3.6	3	4097	-10
COc1ccc(OCC(=O)NN=C(C)c2ccc(OC)cc2)cc1	3	6	/	5.3	18	/	/
C[C@@H](C(=O)N1CCN(Cc2ccc3c(c2)OCO3)CC1)n1nnc2ccccc2c1=O	2	3	-6	4.2	2	5722	-9
CCOC(=O)c1cc(NC(=O)SCC(=O)O)c(C)nc1C	11	-1	-16	2.9	4	3230	-6
CN(C(=O)COc1ccccc1)c1nnc(-c2cccnc2)s1	/	/	-15	-3.1	5	4716	5
Cc1noc(C)c1CSCC(=O)N(C)CC(=O)Nc1ccc(F)cc1	4	-2	10	0.2	4	?	8
CCN(CC)S(=O)(=O)c1ccc2c(c1)nc(CCC(=O)OCC(=O)Nc1cc(OC)cc(OC)c1)n2C	7	2	-9	3.5	9	2829	0
CCCCOc1ccc(C(=O)Nc2ccc(N3CCN(C)CC3)cc2)cc1	/	/	-2	4.4	14	2558	1
Cn1c(Oc2ccccc2)c(C=O)c2ccccc21	21	9	-12	-10	-3	2507	-4
Cc1ccc(-c2nnc(Nc3ccc4c(c3)OCO4)c3ccccc23)cc1S(=O)(=O)NC(C)C	/	/	-17	/	/	10144	-3
O=C(/C=C/c1cccc([N+](=O)[O-])c1)NCc1ccccc1	3	-2	-7	-2.7	6	3490	6
COc1ccc(Nc2nc(NCc3ccco3)nc(N/N=C/c3ccc(O)cc3)n2)cc1	/	/	-16	/	/	2434	-12
CC(=O)Nc1ccc(S(=O)(=O)NCCC(=O)NCCc2ccc(F)cc2)cc1	/	/	-14	-4.0	-2	2399	6
Cc1nc2ccccc2c(=O)n1N=Cc1ccccc1F	7	-4	/	1.8	0	/	/
CCc1nn2c(N(C)CCO)cc(C)nc2c1-c1ccc(F)cc1	4	-4	1	2.6	1	4407	-3
S=C(Nc1cccc2ccccc12)Nc1cccc2ccccc12	12	13	-17	-0.5	-2	3717	/
Cc1c2cnn(-c3ccccc3)c(=O)c2c(C)n1CCCC(=O)N1CCN(c2ncccn2)CC1	-4	17	-6	-18	1	3029	/
Cc1nc(S(=O)(=O)Cc2ccc(Cl)cc2)nc2c1CCC2	3	2	-28	4.0	4	4762	3
Cc1cc2nc(-c3ccc4c(c3)CCC4)ccn2n1	-4	8	-22	2.0	6	4202	-2
Nc1nc(Nc2ccccc2F)nc(NCc2ccco2)c1[N+](=O)[O-]	1	-1	-28	-3.0	13	6180	-7
CCOC(=O)C1(CCCc2ccccc2)CCN(C(=O)CCC2=NNC(=O)CC2)CC1	18	11	-27	7.4	7	2217	-21
Nc1cc(S(=O)(=O)N2CCOCC2)ccc1Oc1cccc(Br)c1	-9	-12	-14	1.1	6	3490	/
Cc1c(NC(=O)C(C)NCC2CCCO2)c(=O)n(-c2ccccc2)n1C (stereo unspecified)	/	/	-17	1.8	1	2823	2
NC(=O)CC(NC(=O)c1ccccc1)C(=O)O (stereo unspecified)	/	/	-7	4.5	-1	6158	-11
COc1ccc(O[C@@H]2O[C@H](COC(C)=O)[C@@H](OC(C)=O)[C@H](OC(C)=O)[C@H]2NC(C)=O)cc1	-8	7	-13	-0.8	-3	2214	-8
Cc1ccc(-n2cccc2C(=O)NS(=O)(=O)c2ccc(C)cc2)cc1	-6	0	-6	8.3	11	3556	7
CC(C)NC(=O)N(C)C[C@H]1Oc2c(NC(=O)Nc3ccc4c(c3)OCO4)cccc2C(=O)N([C@H](C)CO)C[C@@H]1C	6	7	-8	0.8	2	3732	/
COc1ccc(Nc2ccccc2N)cc1	/	/	-32	-9.1	3	3649	2
O=C(CCSc1nc(-c2ccco2)cc(C(F)(F)F)n1)N1CCN(c2ccccc2)CC1	/	/	-7	-0.3	3	3320	-6
Cc1occc1C(=O)N1CCCC(CO)(Cc2ccc(F)cc2F)C1 (stereo unspecified)	14	-6	-7	0.6	3	5986	-12
COc1ccc(/C=N/NC(=O)c2ccc3nc[nH]c3c2)cc1OC	/	/	-28	/	/	4034	-4
C=CCN(c1ccccc1)S(=O)(=O)c1cccc(C(=O)Nc2ncccc2O)c1	10	9	-18	11	-2	5565	-7
Cc1csc(Sc2nc3c(c(=O)[nH]c(=O)n3C)n2Cc2ccccc2Cl)n1	1	-3	-26	5.5	-7	5276	1
Cc1ccc(O)c(-c2cc(C(=O)Nc3c(C)n(C)n(-c4ccccc4)c3=O)[nH]n2)c1	0	3	-26	0.7	3	1959	-8
COc1ccc(S(=O)(=O)N2CCN(C(=O)c3cccnc3)CC2)cc1OC	-1	7	-32	6.2	6	3565	-5
CN(C)S(=O)(=O)N(CC(=O)Nc1ccccc1F)c1ccccc1	4	4	-6	1.4	4	3172	1
CC1(c2ccccc2Cl)NC(=O)N(CC(=O)NCc2ccco2)C1=O (stereo unspecified)	9	2	-13	1.0	7	2604	5
CCOc1ccc2nc(-c3ccccc3)nc(SCC(=O)OC)c2c1	11	6	-47	-1.1	12	2908	-8

Part of the list above, limited to Sa RN4220 lethal:
Compound | Sa RN4220 lethal
Cc1cc2nc(-c3ccc4c(c3)CCC4)ccn2n1 | 2.0
Nc1nc(Nc2ccccc2F)nc(NCc2ccco2)c1[N+](=O)[O-] | -3.0
CCOC(=O)C1(CCCc2ccccc2)CCN(C(=O)CCC2=NNC(=O)CC2)CC1 | 7.4
Nc1cc(S(=O)(=O)N2CCOCC2)ccc1Oc1cccc(Br)c1 | 1.1
Cc1c(NC(=O)C(C)NCC2CCCO2)c(=O)n(-c2ccccc2)n1C (stereo unspecified) | 1.8
NC(=O)CC(NC(=O)c1ccccc1)C(=O)O (stereo unspecified) | 4.5
COc1ccc(O[C@@H]2O[C@H](COC(C)=O)[C@@H](OC(C)=O)[C@H](OC(C)=O)[C@H]2NC(C)=O)cc1 | -0.8

Arranged by SMILES length (rising): three of the compounds above
SMILES	Mtb hypoxia rep	Mtb hypoxia rep growth	PrP 5UTR inh	Sa RN4220 lethal	ugtP null kill	Bead autofluor	BJeLR viability
Nc1nc(Nc2ccccc2F)nc(NCc2ccco2)c1[N+](=O)[O-]	1	-1	-28	-3.0	13	6180	-7
Cc1ccc(-n2cccc2C(=O)NS(=O)(=O)c2ccc(C)cc2)cc1	-6	0	-6	8.3	11	3556	7
O=C(CCSc1nc(-c2ccco2)cc(C(F)(F)F)n1)N1CCN(c2ccccc2)CC1	/	/	-7	-0.3	3	3320	-6

Quoted at random: three compounds from above.
SMILES	Mtb hypoxia rep	Mtb hypoxia rep growth	PrP 5UTR inh	Sa RN4220 lethal	ugtP null kill	Bead autofluor	BJeLR viability
O=C(CCSc1nc(-c2ccco2)cc(C(F)(F)F)n1)N1CCN(c2ccccc2)CC1	/	/	-7	-0.3	3	3320	-6
CN(C)S(=O)(=O)N(CC(=O)Nc1ccccc1F)c1ccccc1	4	4	-6	1.4	4	3172	1
COc1ccc(/C=N/NC(=O)c2ccc3nc[nH]c3c2)cc1OC	/	/	-28	/	/	4034	-4

More entries:
SMILES	Mtb hypoxia rep	Mtb hypoxia rep growth	PrP 5UTR inh	Sa RN4220 lethal	ugtP null kill	Bead autofluor	BJeLR viability
Cc1coc2c1c(C)cc1oc(=O)c(CC(=O)NCC(=O)NCC(=O)O)c(C)c12	6	-5	4	-0.5	3	3252	3
C/C(N)=C(/C#N)C(=O)CSc1nc2cc(Cl)ccc2c(=O)n1Cc1ccco1	-1	0	-16	-23	-1	3203	4
CCc1c(C)[nH]c(=S)c(C#N)c1C	/	/	4	1.9	2	4146	-1
COc1ccccc1Cn1c(=S)[nH]c2ccc(Br)cc2c1=O	4	-1	-3	-4.0	12	3774	4
COc1ccccc1-c1nnc2sc(COc3ccc(Cl)cc3)nn12	9	4	-1	3.9	-4	2568	-12
O=C(NCCCc1ccccc1)c1ccncc1	6	14	-3	5.1	8	8441	0
NS(=O)(=O)c1ccc(CCNC(=O)C2CCCCN2S(=O)(=O)c2ccccc2)cc1 (stereo unspecified)	6	9	0	3.8	-1	21340*	1
Cc1nc([N+](=O)[O-])c(Sc2nc3ccccc3n2C)n1Cc1ccccc1	16	15	20	13	5	10110	9
COc1ccc(S(=O)(=O)NCC2CCCN(Cc3ccc(C)o3)C2)cc1 (stereo unspecified)	4	-3	45	2.6	6	3425	-9
O=[N+]([O-])c1ccc(N2CCN(c3ccc(F)cc3)CC2)cc1	10	-9	-9	-0.4	11	3040	3
Cc1cccc(C(=O)Nc2nnc(SCC(=O)NC3CC3)s2)c1	4	1	-24	2.7	7	6245	0
COc1ccccc1N1CC(C(=O)Nc2cccc(C(=O)O)c2)CC1=O (stereo unspecified)	-4	-1	-10	1.7	1	2383	3
CCN(CC(=O)Nc1cccc(OC)c1)C(=O)c1ccco1	15	9	-19	5.4	0	3727	1
CCOc1ccc(N2C(=O)C3C(c4ccc(O)cc4)NC(CCSC)(C(=O)OC)C3C2=O)cc1 (stereo unspecified)	0	1	-8	5.9	5	3445	-3
CCN(CC)S(=O)(=O)c1cccc(NC(=O)COC(=O)c2ccc(Br)o2)c1	9	3	-11	3.7	6	3342	4
O=C(O)C1C2C=CC(C2)C1C(=O)NCCC1=CCCCC1 (stereo unspecified)	3	1	-18	7.0	8	10707	5
O=C(C1CCCO1)N1N=C(c2ccc(Br)cc2)CC1c1ccco1 (stereo unspecified)	6	3	-10	-0.3	-7	8719	9
O=C(NC(Cc1c[nH]c2ccccc12)C(=O)N/N=C/c1ccc(Br)cc1)c1cccs1 (stereo unspecified)	/	/	-13	/	/	2248	-8
COc1ccn(C)c(=O)c1C#N	/	/	-2	0.5	1	5435	18
Cc1nn(-c2ccc(F)cc2)c(Cl)c1/C=N/NC(=O)c1ccc(O)cc1	/	/	-14	/	/	3457	1
Cn1c(C(=O)O)ccc1S(=O)(=O)N(Cc1ccccc1)Cc1ccccc1	7	6	-11	11	3	5094	-5
Clc1ccccc1-c1ccc(C=NNc2nncc(-c3ccccc3)n2)o1	11	-4	/	10	-3	/	/
CCCCC(=O)Nc1ccc(C)c(O)c1	/	/	-27	0.4	5	2640	-11
COc1ccc(C=CC(O)CCN2CCC3CCC(C3)C2)cc1 (stereo unspecified)	21	9	0	5.3	7	4248	/
O=C(NN=Cc1cccc([N+](=O)[O-])c1)C1CC(=O)N(c2ccc(Cl)cc2)C1 (stereo unspecified)	4	7	/	2.0	1	/	/
O=C(CSc1n[nH]c(-c2ccncc2)n1)Nc1ccc(Cl)c(C(=O)O)c1	12	6	-18	-0.2	-2	3682	-7
COCCSc1ccccc1C(=O)N1CCN(c2ccccc2)CC1	3	2	-3	6.2	7	4161	-1
COc1ccc(CCOC2OC(CO)C(OC(=O)/C=C/c3ccc(O)c(OC)c3)C(O[C@H]3O[C@@H](C)[C@H](O)[C@@H](O)[C@H]3O)C2O)cc1O (stereo partly specified)	/	/	0	3.4	-1	5646	/
CCCCOc1ccc(-c2ncc(C(=O)OCC)c(N)n2)cc1	10	10	-96	6.7	7	11041	-2
Cc1cccc(OCCSc2nc3ncnc(N)c3[nH]2)c1	-3	1	11	5.9	6	3751	-6
COc1cccc(C2CC(c3c(-c4ccccc4)c4cc(Cl)ccc4[nH]c3=O)=NN2S(C)(=O)=O)c1OC (stereo unspecified)	-3	4	-5	18	-1	5070	-13
O=C(c1cc2c(s1)-c1ccccc1OC2)N1CCc2ccccc2C1	6	7	-28	11	6	5754	8
COC(=O)C1=COC(OC2OC(CO)C(O)C(O)C2O)C2C1C=CC2(O)CO (stereo unspecified)	/	/	-8	1.1	8	5957	/
Cc1cc(NC(=O)COC(=O)CC2CCCC2)c([N+](=O)[O-])cc1C	7	1	-36	3.6	1	/	-6
COc1ccc(OCc2cc(C(=O)N(C)C(C)c3ccon3)no2)c(Cl)c1 (stereo unspecified)	4	14	-45	2.1	3	5312	1
Cc1ccc(NC(=O)CCC(=O)NCCO)cc1	5	0	-38	7.1	-1	2880	-11
